High-throughput results as filed in PubChem BioAssay.
Mtb H37Rv – Mycobacterium tuberculosis H37Rv growth inhibition, putative kinase inhibitor library, confirmatory dose response (AID 2842) | M. tuberculosis H37Rv growth inhibition; higher % means a stronger effect; some inactives read as strong as hits | one-dose inhibition, % at 10 µg/mL; IC90 in µg/mL for titrated hits | 5.2% of 24,000 active;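 active = confirmed in a dose series; about a fifth of its hits are not listed in these tables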;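 note: bacteria incubated one week before Alamar blue readout; 0% = bacteria only wells and 100% = bacteria with high antibiotic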
Numbers without * were called inactive.

What do the screens show for `O=C(c1cccc(NC2=NC3CS(=O)(=O)CC3S2)c1)N1CCN(c2ccccn2)CC1` (stereo unspecified)?
Mtb H37Rv: -4%

What do the screens show for `Cc1ccc(C)c(NC(=O)Cn2ccn(-c3cccc4ccccc34)c(=O)c2=O)c1`?
Mtb H37Rv: -7%

How did CCCC(=O)NCCc1cc2ccc(OC)cc2[nH]c1=O do in these assays?
Mtb H37Rv: 1%

How did Cc1ccccc1-n1nc2c(c1NC(=O)COc1ccc3ccccc3c1)CS(=O)C2 (stereo unspecified) do in these assays?
Mtb H37Rv: -1%

Results for O=C(/C=C/c1ccc(F)cc1)N1CCN(c2cccc(Cl)c2)CC1 ?
Mtb H37Rv: 5%

What do the screens show for `Cc1ccc(NC(=O)c2cnc3n(c2=O)CCS3)cc1Cl`?
Mtb H37Rv: -1%

What do the screens show for `CC1CCC(NC(=O)CCCn2c(=O)[nH]c3ccsc3c2=O)CC1` (stereo unspecified)?
Mtb H37Rv: -15%

What do the screens show for `Cc1ccc(-n2c(SCC(=O)NCc3ccco3)nc3c(c2=O)SCC3)cc1`?
Mtb H37Rv: 12%

How did O=C(CSc1ccc2nnc(-c3ccccc3)n2n1)Nc1ccc2c(c1)OCO2 do in these assays?
Mtb H37Rv: -6%

Results for O=C(Nc1nc2ccc(F)cc2s1)c1ccc2c(c1)CCCC2 ?
Mtb H37Rv: 6%

What do the screens show for `CC(=O)Oc1cccc(NC(=O)CC2Sc3ccccc3NC2=O)c1` (stereo unspecified)?
Mtb H37Rv: 3%

What do the screens show for `O=C(CSc1nnc(CNC(=O)c2c(F)cccc2F)o1)Nc1ccc(F)cc1F`?
Mtb H37Rv: -7%

How did COC(=O)C1=C(N)Oc2c(oc(CO)cc2=O)C1c1cccc(Cl)c1 (stereo unspecified) do in these assays?
Mtb H37Rv: -1%

What do the screens show for `CC(=O)NC(=O)c1cc2cc(Cl)cc(Cl)c2oc1=Nc1ccc(C#N)cc1`?
Mtb H37Rv: 10%

What do the screens show for `Cc1ccc(NC(=O)CN2N=NC3C(=O)N(c4ccc(F)c(F)c4)C(=O)C32)cc1` (stereo unspecified)?
Mtb H37Rv: -7%

What do the screens show for `COc1ccc(NC(=O)c2c(C(=O)Nc3cccc(C)c3C)sc3nc(C)cc(=O)n23)cc1`?
Mtb H37Rv: -12%

Results for O=C(Nc1nnc(-c2ccc(Br)cc2)s1)c1ccc(Br)cc1 ?
Mtb H37Rv: 3%

Results for O=C(CSc1ccc2nnc(-c3cccc(F)c3)n2n1)Nc1cccc(C(F)(F)F)c1 ?
Mtb H37Rv: -3%

How did O=C(CSc1nnc2ccc(-c3ccccn3)nn12)c1ccc(F)cc1 do in these assays?
Mtb H37Rv: -7%

Results for COc1ccccc1-n1c(SCC(=O)Nc2cccc3ccccc23)nc2c(c1=O)SCC2 ?
Mtb H37Rv: 2%

How did O=C(Nc1nc2cc3c(cc2s1)OCO3)c1cccc(NS(=O)(=O)c2ccccc2)c1 do in these assays?
Mtb H37Rv: 6%

Results for CNC(=O)C(=O)c1c[nH]c2ccccc12 ?
Mtb H37Rv: 5%

How did COc1ccc(C)c2sc(N(CCCn3ccnc3)C(=O)c3ccc(Cl)s3)nc12 do in these assays?
Mtb H37Rv: 2.7µg/mL*

How did N#C/C(=C\c1ccc(-c2nc3ccccc3s2)o1)c1nc2ccccc2c(=O)[nH]1 do in these assays?
Mtb H37Rv: 15%

Results for CCOC(=O)c1nn(-c2ccc(F)cc2)c(=O)c2c(NC(=O)/C=C/c3ccc4c(c3)OCO4)scc12 ?
Mtb H37Rv: -7%

What do the screens show for `CC(C)N1CCc2c(sc(NC(=O)c3cccc(Oc4ccccc4)c3)c2C(N)=O)C1`?
Mtb H37Rv: 67%

What do the screens show for `CC(C)Sc1nnc(NC(=O)C(C)(C)C)s1`?
Mtb H37Rv: 32%

How did Cn1c(=O)[nH]c(=O)c2c1nc(SCc1ccccc1)n2CCc1ccccc1 do in these assays?
Mtb H37Rv: 13%

Results for CC(=O)c1cccc(NC(=O)CSc2nc(=O)n(CCCO)c3c2CCCC3)c1 ?
Mtb H37Rv: 5%

Results for Cc1ccc(NC(=O)CSc2ncc(S(=O)(=O)c3ccc(C)cc3)c(=O)[nH]2)cc1 ?
Mtb H37Rv: -22%

How did Cc1nc2ccc3nc(NC(=O)CCCS(=O)(=O)c4ccccc4)sc3c2s1 do in these assays?
Mtb H37Rv: 67%

How did Nn1c(SCC(=O)NC2CCCCC2)nnc(CCC(=O)O)c1=O do in these assays?
Mtb H37Rv: -14%

Results for Cc1ccc(/C=N\NC(=O)CCc2n[nH]c(=O)[nH]c2=O)cc1 ?
Mtb H37Rv: -5%

Results for COc1ccc2oc(=O)c(C(=O)N3c4ccccc4CC3C)cc2c1 (stereo unspecified) ?
Mtb H37Rv: 5%

Results for COc1ccc(C2c3sc(=O)[nH]c3SC3C4CC(C5C(=O)N(C(C)C(=O)O)C(=O)C45)C23)cc1 (stereo unspecified) ?
Mtb H37Rv: -1%

What do the screens show for `O=C(CN1N=NC2C(=O)N(c3ccc(Br)cc3)C(=O)C21)Nc1cc(F)ccc1F` (stereo unspecified)?
Mtb H37Rv: -18%

How did O=C(c1ccco1)N(CCCn1ccnc1)c1nc2c(F)cccc2s1 do in these assays?
Mtb H37Rv: 3.1µg/mL*

Results for CCOC(=O)c1oc2ccccc2c1NC(=O)c1ccc(Cl)c([N+](=O)[O-])c1 ?
Mtb H37Rv: 9%

What do the screens show for `Cc1ccc(NC(=O)CSc2nnc3ccc4ccccc4n23)cc1`?
Mtb H37Rv: 5%

Results for COc1cc2ccccc2cc1C(=O)Nc1ccccc1-c1nc2ccccc2[nH]1 ?
Mtb H37Rv: 63%

The final 2 records of the section before are carried over, then new ones follow:
What do the screens show for `Cc1ccc(NC(=O)CSc2nnc3ccc4ccccc4n23)cc1`?
Mtb H37Rv: 5%

Results for COc1cc2ccccc2cc1C(=O)Nc1ccccc1-c1nc2ccccc2[nH]1 ?
Mtb H37Rv: 63%

How did O=C(CN1CCOCC1)N1N=C(c2c(-c3ccccc3)c3cc(Br)ccc3[nH]c2=O)CC1c1ccccc1 (stereo unspecified) do in these assays?
Mtb H37Rv: 7%

Results for Cc1ccnc(SCCn2c(N3CCN(c4ccccc4)CC3)nc3c2c(=O)n(C)c(=O)n3C)n1 ?
Mtb H37Rv: -3%

Results for COc1cc(C)c(S(=O)(=O)Nc2cccc(-n3c(C)nc4ccccc4c3=O)c2)cc1C ?
Mtb H37Rv: 0%

Results for O=C(COC(=O)C1CCCO1)Nc1cc(Cl)cc(Cl)c1 (stereo unspecified) ?
Mtb H37Rv: -1%

What do the screens show for `CN(C(=O)c1ccc([N+](=O)[O-])cc1)c1nnc(C23CC4CC(CC(C4)C2)C3)s1`?
Mtb H37Rv: 8%

How did CC(/C=N/Nc1nnc(-c2ccccc2)c(=O)[nH]1)c1ccccc1 (stereo unspecified) do in these assays?
Mtb H37Rv: -8%

Results for Cc1ccc(C)c(NC(=O)CSc2nc3c([nH]c4ccccc43)c(=O)n2-c2cccc(C(F)(F)F)c2)c1 ?
Mtb H37Rv: 33%

What do the screens show for `COc1ccc(CCNC(=O)c2ccc(-c3ccccc3Cl)o2)cc1OC`?
Mtb H37Rv: -5%

How did COc1cc(-c2nnc(NC(=O)c3cccc(F)c3)o2)cc(OC)c1OC do in these assays?
Mtb H37Rv: 74%

How did Cc1sc2ncn(CC(N)=O)c(=O)c2c1C do in these assays?
Mtb H37Rv: -3%

What do the screens show for `COc1cccc(-c2csc(/C(C#N)=C\Nc3cc(C)cc(C)c3)n2)c1`?
Mtb H37Rv: -4%

Results for O=C(O)CCCCCn1c(O)c(C=C2N=c3ccccc3=N2)sc1=S ?
Mtb H37Rv: -13%

How did Cc1cc(C)cc(NC(=O)CSc2ccc3nnc(CCNC(=O)c4ccc(F)cc4)n3n2)c1 do in these assays?
Mtb H37Rv: 10%

What do the screens show for `O=C(CSc1ccc(-c2ccc(-n3ccnc3)cc2)nn1)NCc1ccccc1Cl`?
Mtb H37Rv: -11%

What do the screens show for `COc1ccc(N2C(=O)CC(SCC(=O)Nc3cccc(Br)c3)C2=O)cc1` (stereo unspecified)?
Mtb H37Rv: -14%

Results for O=c1nc(N/N=C/c2ccncc2)cn[nH]1 ?
Mtb H37Rv: -5%

Results for Nc1nc(SCC(=O)NCCc2ccccc2)[nH]c(=O)c1NC(=O)c1ccccc1F ?
Mtb H37Rv: -6%

Results for CCS(=O)(=O)c1ccc(CC(=O)Nc2nnc(-c3ccco3)o2)cc1 ?
Mtb H37Rv: 0%

Results for CCCOC(=O)CC1C(=O)NCCN1Cc1ccc(F)cc1 (stereo unspecified) ?
Mtb H37Rv: -6%

How did O=c1[nH]c(NN=C2CCCCC2)nc2sc3c(c12)CCCC3 do in these assays?
Mtb H37Rv: 5%

Quoted at random: six entries already listed.
How did O=c1[nH]c(NN=C2CCCCC2)nc2sc3c(c12)CCCC3 do in these assays?
Mtb H37Rv: 5%

How did COc1cc(-c2nnc(NC(=O)c3cccc(F)c3)o2)cc(OC)c1OC do in these assays?
Mtb H37Rv: 74%

How did Cc1sc2ncn(CC(N)=O)c(=O)c2c1C do in these assays?
Mtb H37Rv: -3%

Results for O=C(COC(=O)C1CCCO1)Nc1cc(Cl)cc(Cl)c1 (stereo unspecified) ?
Mtb H37Rv: -1%

What do the screens show for `COc1ccc(CCNC(=O)c2ccc(-c3ccccc3Cl)o2)cc1OC`?
Mtb H37Rv: -5%

How did Cc1cc(C)cc(NC(=O)CSc2ccc3nnc(CCNC(=O)c4ccc(F)cc4)n3n2)c1 do in these assays?
Mtb H37Rv: 10%

(next part)
Results for O=C(N=Nc1c(O)[nH]c2ccccc12)c1ccc([N+](=O)[O-])cc1 ?
Mtb H37Rv: -1%

How did COc1cccc(C(=O)N(CCCn2ccnc2)c2nc3c(C)cccc3s2)c1OC do in these assays?
Mtb H37Rv: 4.2µg/mL*

What do the screens show for `COc1ccc(C(=O)Nc2c(N)nc(SCC(=O)Nc3cccc(F)c3)[nH]c2=O)cc1OC`?
Mtb H37Rv: -4%

Results for COC(=O)c1c(NC(=O)CC2Nc3cc(C)c(C)cc3NC2=O)sc2c1CCCC2 (stereo unspecified) ?
Mtb H37Rv: -2%

What do the screens show for `COc1ccc(C(=O)Nc2nnc(-c3cc(OC)c(OC)c(OC)c3)o2)cc1`?
Mtb H37Rv: 1%

Results for NC(=O)c1nc(-c2ccccc2O)nc2c1[nH]c(=O)n2-c1ccc(F)cc1 ?
Mtb H37Rv: 4%

How did NC(=O)c1nc(-c2cccc(Cl)c2)nc2c1[nH]c(=O)n2-c1ccc(F)cc1 do in these assays?
Mtb H37Rv: -3%

Results for COc1ccc(/C(O)=C2\C(=O)C(=O)N(CCCn3ccnc3)C2c2cccc(F)c2)cc1Cl (stereo unspecified) ?
Mtb H37Rv: -12%

Results for CCOCCCn1c(SCC(=O)Nc2cc(C)cc(C)c2)nc2c(oc3ccccc32)c1=O ?
Mtb H37Rv: -6%

How did COc1cc2c(=O)c(C(=O)c3ccc(C)c(C)c3)cn(Cc3ccc(C)cc3)c2cc1OC do in these assays?
Mtb H37Rv: 92%

What do the screens show for `Brc1ccc2nc(N3CCN(c4ccccc4)CC3)sc2c1`?
Mtb H37Rv: -4%

What do the screens show for `COc1ccc2c(c1)c1nnc(-c3ccc(C)cc3)c-1cn2Cc1ccccc1F`?
Mtb H37Rv: 28%

How did Cc1ccc(NS(=O)(=O)c2c[nH]c(=O)[nH]c2=O)c(C)c1 do in these assays?
Mtb H37Rv: 7%

Results for N#Cc1ccc(-c2csc(NC(=O)c3ccc(Br)s3)n2)cc1 ?
Mtb H37Rv: 6%

How did CC(C(=O)Nc1ccc(S(N)(=O)=O)cc1)N1C(=O)c2ccccc2S1(=O)=O (stereo unspecified) do in these assays?
Mtb H37Rv: -2%

What do the screens show for `Cc1ccc(-n2c(=O)[nH]c3c(C(N)=O)nc(CC(C)C)nc32)cc1`?
Mtb H37Rv: -3%

How did Cc1cc2cc(CCNC(=O)c3ccc(S(=O)(=O)N4CCCCC4)cc3)c(=O)[nH]c2cc1C do in these assays?
Mtb H37Rv: 17%

What do the screens show for `O=C(/C=C\c1ccccc1)Nc1c(C(=O)Nc2ccccc2)oc2ccccc12`?
Mtb H37Rv: 12%

Results for COc1ccccc1N=c1oc2ccccc2cc1C(=O)NC(C)=O ?
Mtb H37Rv: -6%

What do the screens show for `Fc1ccc2nc(Nc3nc4cc5c(cc4s3)OCO5)sc2c1`?
Mtb H37Rv: 77%

Results for Cc1ccc(-c2csc(NC(=O)c3ccc(N4C(=O)CCC4=O)cc3)n2)o1 ?
Mtb H37Rv: -2%

What do the screens show for `O=C(Cc1ccccc1)Oc1coc(CSc2ncccn2)cc1=O`?
Mtb H37Rv: -15%

How did O=C(CSc1ccc2nnc(-c3ccc(F)cc3)n2n1)Nc1nccs1 do in these assays?
Mtb H37Rv: -8%

Results for Cc1cc2cc(CCNC(=O)c3ccccc3Br)c(=O)[nH]c2cc1C ?
Mtb H37Rv: 4%

Results for COc1ccc(C(=O)c2cn(Cc3cccc(F)c3)c3cc(OC)c(OC)cc3c2=O)cc1 ?
Mtb H37Rv: 1%

What do the screens show for `O=C1CCc2cc(S(=O)(=O)Nc3ccccc3F)cc3c2N1CC3`?
Mtb H37Rv: -3%

What do the screens show for `CC(C)(C)c1ccc(-c2csc(NC(=O)c3ccc(S(=O)(=O)N4CCc5ccccc54)cc3)n2)cc1`?
Mtb H37Rv: 4%

Results for COc1ccc(CNC(=O)/C(C#N)=C/N2CCN(c3cccc(C)c3C)CC2)cc1 ?
Mtb H37Rv: 8%

Results for Cc1c(Cc2ccc3c(c2)OCO3)sc(NC(=O)COc2ccccc2)c1C#N ?
Mtb H37Rv: 11%

Among those listed so far, these have a CF3 group.
Results for O=C(CSc1ccc2nnc(-c3cccc(F)c3)n2n1)Nc1cccc(C(F)(F)F)c1 ?
Mtb H37Rv: -3%

Results for Cc1ccc(C)c(NC(=O)CSc2nc3c([nH]c4ccccc43)c(=O)n2-c2cccc(C(F)(F)F)c2)c1 ?
Mtb H37Rv: 33%

Only part of the results is shown. The share of hits here may be higher or lower than overall.
